Assay outcomes deposited in PubChem BioAssay by several laboratories.
Mtb hypoxia rep = PubChem AID 1159583; M. tuberculosis hypoxia-regulated fluorescent reporter, fluorescence; fluorescence inhibition, % (no concentration beside the values); 0.1% of 300,000 active;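 active = 35 to 45% if threefold the growth effect, above 45% if 1.5-fold the growth effect; inactive = the rest, general growth blockers included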;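 note: wells of about 50 µL received 100 nL stock; 0% = vehicle wells and 100% = reference inhibitor wells; whole bacteria with a GFP reporter of the hypoxia response; strong numbers were not always called active; many hits fall short of the cut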
PrP 5UTR inh = inhibition of PrP 5' UTR reporter expression; cell-based PrP 5' UTR mRNA reporter, plate reader; inhibition, % (concentration not given with the values); 0.35% of 340,000 active;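 active = every replicate at 50% or more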;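 note: 0 = median of the neutral control wells; tested in H4 reporter cells; numbers are from one replicate; inactives centre near -14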
Autofluor counter = compound fluorescence in toxin protease inhibitor counterscreen | fluorescence intensity (concentration not given with the values) | AID 624483 | compound autofluorescence counterscreen, microsphere flow cytometry; stronger effect = higher value | 3.1% of 360,000 active;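 active = at least 3 SD above the mean of all compounds, about 16000 in these data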;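 note: 100 nL of 1 mM stock went into each well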
BJeLR lethal = MLPCN primary cell-based screen for lethality selective to Ras in HRASV12 cells. BJeLR (HRASV12) viability, CellTiter-Glo ATP luminescence, 48 h; reference of the scale not given here. inhibition, % (no concentration beside the values). 0.17% of 300,000 active;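 active = replicate mean above 50%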;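 note: 50 nL library stock added to about 25 µL; numbers are from one replicate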
Sa ugtP lethal = growth inhibition of ugtP-null S. aureus, primary screen, RN4220 ugtP deletion, OD600; 16 h; some inactives read as strong as hits; growth inhibition, % (no concentration beside the values); 0.54% of 330,000 active; AID 1259309, 2017;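 active = z-score under -3 and OD600 up to 0.15 on both plates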;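 note: plate controls were untreated wells for no effect and antibiotic for full effect; wells of about 80 µL received 100 nL stock; the first replicate is given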
Sa RN4220 lethal = growth inhibition of S. aureus RN4220, primary screen, OD600; 16 h; inhibition, % (no concentration beside the values); 0.33% of 330,000 active;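 active = z-score of -3 or lower and OD600 up to 0.18 on both plates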;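 note: plate controls were untreated cells for no effect and reference antibiotic for full effect; stock transfer was 100 nL into about 80 µL; one replicate is shown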
Mtb hypoxia rep growth = further read-out of Mtb hypoxia rep, marked with its call; growth inhibition, %; measured here: M. tuberculosis growth (absorbance);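 0% = vehicle and 100% = reference antibiotic; read after six days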
Starred values were filed as active, the others as inactive; / = not tested or not shown. Rows are unselected. Share with any hit: about 4%.

SMILES	Mtb hypoxia rep	Mtb hypoxia rep growth	PrP 5UTR inh	Autofluor counter	BJeLR lethal	Sa ugtP lethal	Sa RN4220 lethal
CCOc1ccc(NC(=O)NC2CC(=O)N(c3ccc(OC)cc3)C2)cc1 (configuration not stated)	-8	-10	-33	4849	12	3	1.3
Cc1ccccc1-c1cc(C(=O)Nc2sc(C(=O)OC(C)C)c(C)c2C#N)c2ccccc2n1	-5	14	-26	16235*	37	-16	-0.8
O=C(CN1C(=O)NC2(CCc3ccccc32)C1=O)Nc1ccc(N2CCOCC2)cc1 (configuration not stated)	8	-4	-11	16378*	3	10	4.8
NC(=O)C(Cc1ccccc1)NC(=O)C12CC3CC(CC(C3)C1)C2 (configuration not stated)	-2	-8	-15	3437	8	9	2.9
Cc1ccc(C)c(OCCC(=O)OCC(=O)NCc2ccc(F)cc2)c1	12	-3	-13	5705	2	7	3.9
COc1ccc(NC(=O)NC2(C(=O)N3CCN(C)CC3)CCCCC2)cc1	11	1	-30	5546	6	14	3.3
Cc1ccc(OCC(=O)N2CCc3ccccc32)c([N+](=O)[O-])n1	-2	-8	-5	4626	-2	12	8.8
O=C(COC(=O)CNS(=O)(=O)/C=C/c1ccccc1)NC1CCS(=O)(=O)C1 (configuration not stated)	11	14	-9	3623	-11	5	4.0
O=C(CSc1nc(-c2ccco2)cc(C(F)(F)F)n1)N1CCc2ccccc2C1	7	7	-16	3383	-2	-9	-9.3
O=C(NC(=S)NC(CO)Cc1ccccc1)c1ccc(F)cc1 (configuration not stated)	1	5	-27	5528	-14	2	0.3
COc1ccc(/C=N/NC(=O)c2cccnc2)cc1CN1CCOCC1	/	/	-12	4221	-2	/	/
Cc1c(N/C(=N/S(=O)(=O)c2cc([N+](=O)[O-])ccc2Cl)c2ccccc2)c(=O)n(-c2ccccc2)n1C	4	-1	-7	4409	1	4	0.1
COc1ccc(/C=C/C(=O)Nc2cccc(S(=O)(=O)NC3=NCCCCC3)c2)cc1	2	1	/	3500	-9	10	0.8
CCOc1ccc(N(CC(=O)N2CCN(c3ccc(F)cc3)CC2)S(=O)(=O)c2c(C)noc2C)cc1	-8	9	-1	5804	-2	1	0.6
CC12CCC(C(=O)Nc3cc(Cl)ccc3Cl)(CC1=NO)C2(C)C (configuration not stated)	3	6	/	/	/	-12	4.5
CC[C@]1(C(=O)OC)[C@H]2C(=O)N(C)C(=O)[C@H]2[C@H]2CN(C)C(=NC3CCCCC3)N21	1	2	-38	3770	/	6	0.2
O=C(C1=C[C@H](c2csc3ccccc23)C[C@H](OCc2ccc(CO)cc2)O1)N1CCN(Cc2ccccc2)CC1	/	/	-6	4606	20	/	/
C[C@H](CO)N1C[C@H](C)[C@@H](CN(C)Cc2ccccc2)Oc2c(NC(=O)C3CCCCC3)cccc2C1=O	12	8	-26	4146	/	-13	-3.1
CC(=O)Nc1ccc(CN2CCCC(C(=O)c3ccc(C(F)(F)F)cc3)C2)cc1 (configuration not stated)	-3	-6	-13	4717	2	9	-0.2
O=C(NC(=S)NC1CCS(=O)(=O)C1)c1ccccc1Br (configuration not stated)	-7	4	-5	6247	3	-4	-0.7
Cn1/c(=N/N=C/c2ccc(N3CCOCC3)cc2)sc2ccccc21	/	/	-25	3219	-17	/	/
N#Cc1ccc(S(=O)(=O)N2CCN(CC(=O)Nc3ccccc3C(=O)NC3CC3)CC2)cc1	6	1	-9	5970	/	9	2.7
CCCCCC1CC1C(=O)N/N=C/c1ccc(N(C)C)cc1 (configuration not stated)	/	/	-17	4129	-13	/	/
CC1CCN(C(=O)CSc2nc(=O)n3cc(Cl)ccc3n2)CC1	12	-2	-18	5772	6	1	3.2
O=c1cc(Cl)c2ccccc2n1-c1ccccc1	-8	-3	/	3911	-5	6	0.7

The list goes on.
SMILES	Mtb hypoxia rep	Mtb hypoxia rep growth	PrP 5UTR inh	Autofluor counter	BJeLR lethal	Sa ugtP lethal	Sa RN4220 lethal
COc1cc(C=NNC(=O)[C@H](Cc2c[nH]c3ccccc23)NC(=O)OCC(C)C)cc([N+](=O)[O-])c1O	1	0	/	/	/	0	4.6
CCC(C)NC(=O)COC(=O)c1oc2ccccc2c1CSc1ccc(Cl)cc1 (configuration not stated)	-9	-26	10	2015	0	-9	16
Cc1cccc(C(=O)OC(C)C(=O)NC(=O)NC2CCCCC2)c1O (configuration not stated)	3	0	-2	5524	-6	-1	-8.9
COc1ccc(C(C)(C)C)cc1NC(=O)COC(=O)c1cc(SC)ccc1Cl	3	2	-15	2222	5	-22	7.1
Cn1c(Cc2c[nH]c3ccccc23)n[nH]c1=S	/	/	-3	2739	2	-1	1.6
COc1ccc(OC)c(NC(=O)c2cc3c(cc2Cl)N2CCCCCC2=NS3(=O)=O)c1	3	15	-24	3418	/	0	1.2
COC(=O)c1ccc(C(NC(=O)c2ccco2)[C@]2(C)CC2C2CCCCC2)cc1 (some centres not stated)	-2	-1	/	/	/	1	3.0
O=C(Nc1nccs1)c1cc(-c2ccco2)nc2ccccc12	7	5	-13	2227	-20	-10	6.6
COc1ccc(/C=N/NC(=O)CC(=O)NCc2cccnc2)cc1[N+](=O)[O-]	/	/	-5	5382	-4	/	/
COc1ccc(/C(O)=C2\C(=O)C(=O)N(c3cc(C)on3)C2c2ccc(OC)c(OC)c2)cc1OC (configuration not stated)	/	/	-16	4160	2	3	1.7
COc1cccc(-c2cc(C(=O)NCCCN3CCOCC3)no2)c1	1	5	-20	3517	-13	7	5.1
O=S(=O)(/C=C/c1ccccc1)N1CCN(c2nc(-c3ccccc3)nc3ccccc23)CC1	4	0	6	5375	10	10	-2.3
Cc1ccc(CN2C(=O)CCC2C(=O)N2CCN(c3ccccc3)CC2)cc1 (configuration not stated)	2	5	-34	4543	8	12	3.3
CCN(CC(=O)NCc1ccc(F)cc1)C(=O)CCNS(=O)(=O)c1cccc(C)c1	7	-1	-4	4099	/	3	0.4
O=S(=O)(NCCc1ccccc1)c1cccc(S(=O)(=O)N2CCOCC2)c1	/	/	-7	2367	0	13	8.0
O=C(Nc1ccc(C(F)(F)F)cc1)N1CCN(C(=O)c2ccco2)CC1	4	-1	-6	4526	8	5	1.5
Nn1c(SCC(=O)Nc2ccc(F)cc2)nnc1-c1cccnc1	3	9	-29	19014*	-17	4	5.1
COc1ccc(C(=O)NCC(=O)NN=C/C(C)=C/c2ccccc2)cc1OC	-9	12	/	/	/	0	3.8
Cc1ccc(C(=O)Nc2ccccc2C(=O)O)cc1S(=O)(=O)Nc1ccc(Br)cc1	1	15	-16	/	-2	-6	1.1
COc1cccc(CN2CCCC(C(=O)N3CCCCC3)C2)c1 (configuration not stated)	13	4	12	3133	3	11	3.2
CCc1nnc(NC(=O)C(NC(=O)c2ccccc2Cl)C(C)C)s1 (configuration not stated)	7	2	-11	4373	2	1	-0.7
Cc1cc(C(=O)NCc2cccc(Cl)c2)c2ccccc2n1	7	11	-4	4229	-4	-5	2.8
CCCC[C@@H](C)C[C@@H](C)C(=O)N(C)[C@@H](CC(C)C)C(=O)N[C@H](C(=O)N(C)[C@H](C(=O)N1C[C@@H](O)C[C@H]1C(=O)N1C(=O)C=C[C@@H]1C)C(C)C)C(C)OC(C)=O (some centres not stated)	-11	9	85*	2901	/	-7	5.5
Cc1c(C(=O)NN)sc(=S)n1C	19	2	-13	4272	11	11	0.6
O=[N+]([O-])c1cccc(/C=N/n2c(C3CCCCC3)n[nH]c2=S)c1	/	/	0	2382	-5	/	/

(more compounds)
SMILES	Mtb hypoxia rep	Mtb hypoxia rep growth	PrP 5UTR inh	Autofluor counter	BJeLR lethal	Sa ugtP lethal	Sa RN4220 lethal
CN1OC(Cn2cc(C#N)c(=O)n(C)c2=O)CC1c1ccccc1 (configuration not stated)	-7	-3	-15	3483	8	7	1.4
CN1CCN(Cc2ccc(-c3ccc(Cl)cc3)o2)CC1	7	11	-32	9563	/	6	1.5
O=c1c2cccc3c2c(nn1-c1ccccc1)-c1ccccc1-3	0	8	3	4181	-3	-2	-0.7
CN1CCN(c2ccc(N)c(N3CCN(C)CC3)c2)CC1	/	/	-3	2449	-9	-9	-2.0
COc1ccc(/C=C(\NC(=O)c2ccc(OC)cc2)C(=O)NC(CCSC)C(=O)O)cc1 (configuration not stated)	/	/	-25	2747	-2	2	1.2
CC(=O)N1c2ccc(S(=O)(=O)N3c4ccccc4CC3C)cc2CC1C (configuration not stated)	-1	-1	-10	5227	-2	-3	4.8
N#CCCNc1c(Cl)cc(Cl)cc1C(=O)O	-6	4	-8	1976	1	0	1.2
Cc1ccc(C=NNC(=O)COc2ccc(C)cc2[N+](=O)[O-])cc1	-12	-5	/	/	/	-2	4.1
O=C(N/N=C/c1coc2ccccc2c1=O)c1cc2ccccc2o1	/	/	-25	10809	14	/	/
O=S(=O)(c1ccc2ccccc2c1)N1CCC(c2nc(-c3ccncc3)no2)CC1	13	0	-14	8832	-7	2	-2.9
NS(=O)(=O)c1ccc(Oc2ccc(S(N)(=O)=O)cc2)cc1	1	0	-4	4655	2	6	-0.9
CC(C)(C)OC(=O)Nc1ncnc2c1ncn2C1OC(CO)C2OC(C)(C)OC21 (configuration not stated)	-9	-8	-7	4299	1	6	4.3
CC(C)CNC(=S)N1CCC(NC(=O)C23CC4CC(CC(C4)C2)C3)CC1	1	2	-58	3901	-5	-1	4.5
Cc1ccccc1N(CC(=O)NN=Cc1ccc(F)cc1)C(=O)c1ccccc1	1	8	/	/	/	-4	-1.0
Cc1cc(C)cc(N(CC(=O)NCc2cccnc2)S(C)(=O)=O)c1	4	0	-23	10673	3	-1	7.3
CC(=O)Nc1nonc1-c1nc2ccccc2n1CCC#N	-3	6	-12	8882	-5	-3	5.6
CC(=O)C[C@@H](O)CC(=O)[C@@H]1OC(=O)[C@H](C)C/C=C\Cc2ccccc21	3	1	-10	3553	/	10	18
COc1ncnc2c1ncn2CC1COC(C)(C)O1 (configuration not stated)	-4	-4	-16	4276	-4	10	2.4
CCC(COC(=O)c1ccccc1)Oc1cc(NCc2ccccc2)c2ncn(C(C)C)c2c1 (configuration not stated)	5	7	-2	2788	/	-10	5.0
COc1cc2c(c(O)c1OC)-c1c(cc(OC)c(OC)c1O)C(OC(=O)c1ccccc1)[C@@](C)(O)C(C)C2OC(C)=O (some centres not stated)	6	3	/	/	/	1	6.4
Cc1noc(C)c1C(=O)N1CCCC1	/	/	-4	2160	2	9	9.0
Cc1ccc(S(=O)(=O)c2nc(-c3ccc(F)cc3)oc2SCC(N)=O)cc1	5	2	3	3916	1	-5	4.9
Cc1cc(OCC(=O)NC2CCS(=O)(=O)C2)c2c3c(c(=O)oc2c1)CCC3 (configuration not stated)	2	14	-14	3967	6	0	-0.1
Cc1cc(C)n2nc(C(=O)NN=Cc3cccc(Cl)c3)nc2n1	-10	-8	/	/	/	2	0.9
CC(=O)NC1CC2CCCC(C1)N2C(=O)Nc1ccccc1 (configuration not stated)	3	9	-17	3606	-13	7	1.1
COc1cc(OC)cc(C(=O)Nc2ccc(C(=O)c3ccncc3)cc2)c1	5	-2	-24	5730	4	3	0.6
CCOC(=O)CNC(=O)C(=O)c1c(O)[nH]c2ccccc12	4	6	-32	8430	-6	0	1.8
CCOC(=O)C1CCN(C(=O)C2CCN(c3nc4ccc(OC)cc4s3)CC2)CC1	15	18	-10	3926	1	5	3.2
